Screening data (PubChem BioAssay)
HNF4A DNA FP – change in binding of human HNF4A to DNA, primary screen, biochemical, fluorescence polarization, FITC-DNA; Hepatocyte nuclear factor 4-alpha (Homo sapiens), P41235; 1 h; activity change, % at 10 µM; 360,000 tested, 0.3% active; AID 1224865, 2016; in the data active = activity change above about 30%, passing the limit was not always enough;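 also: controls were the assay level and a saturating level of protein; the project sought stronger binding though the title names inhibitors; some compounds called inactive have numbers as strong as hits; positive values seem to mean higher polarization but the record does not say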
Target sequence (P41235 whole entry, looked up): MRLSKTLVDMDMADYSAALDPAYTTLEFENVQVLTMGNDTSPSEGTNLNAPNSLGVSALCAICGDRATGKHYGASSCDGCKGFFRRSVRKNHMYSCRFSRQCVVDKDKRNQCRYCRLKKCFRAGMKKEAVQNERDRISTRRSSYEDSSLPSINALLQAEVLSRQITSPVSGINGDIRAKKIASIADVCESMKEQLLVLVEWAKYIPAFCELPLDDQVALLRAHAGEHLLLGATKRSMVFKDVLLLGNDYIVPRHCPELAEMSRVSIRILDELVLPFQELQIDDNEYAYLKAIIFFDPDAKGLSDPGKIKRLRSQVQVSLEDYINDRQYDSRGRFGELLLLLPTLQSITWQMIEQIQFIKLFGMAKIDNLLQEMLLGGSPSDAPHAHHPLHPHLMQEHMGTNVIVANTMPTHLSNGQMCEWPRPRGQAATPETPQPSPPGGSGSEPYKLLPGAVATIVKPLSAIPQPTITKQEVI
B2AR ag – beta2AR agonists driving receptor internalization, primary screen, cell-based, FAP fluorogen, flow cytometry. Beta-2 adrenergic receptor (Homo sapiens), P07550. Am2.2-beta2AR cells; reference of the scale not given here. response, % (concentration not given with the values). 340,000 tested, 0.43% active. AID 504454, 2011;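 active = response above a set limit, near 3 SD of response in nonfluorescent compounds, cut at about 42% in these data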;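 also: stock transfer was 100 nL into about 11 µL; a reference agonist was the positive control; negative values mostly stem from fluorescent compounds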
Vif TR-FRET – inhibitors of Vif binding to APOBEC3G peptide, primary screen, biochemical, TR-FRET, GST-Vif 1-94, biotin-A3G peptide, dose response retest (AID 1117319); TR-FRET GST-Vif / biotin-A3G peptide binding; higher % means a stronger effect; test concentration not given here; strong numbers were not always called active; Virion infectivity factor (Human immunodeficiency virus type 1 group M subtype B (isolate …; one-dose inhibition, %; IC50 in µM for titrated hits; 260,000 tested, 0.57% active;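 active = above the screen mean plus three standard deviations and confirmed in dose response; inconclusive = results disagree or hit not tested in dose response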;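 also: Vif residues 1-94 fused to GST binding biotinylated APOBEC3G peptide 110-148; 0% = full assay without inhibitor and 100% = GST in place of GST-Vif; retest series ran down from 100 µM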
LANA-H2B inh – blockers of LANA interaction with H2A/H2B – biochemical, FP readout, HTS, primary screen. Protein LANA1 (Human herpesvirus 8 type P (isolate GK18)), Q9QR71. cell-free LANA-H2A/H2B peptide, fluorescence polarization. inhibition, % (test concentration not listed). 320,000 tested, 0.6% active. AID 2629, 2010; in the data active = inhibition mostly above about 10%, no sharp cut-off; inactive = mostly below about 6.7%;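 also: stock transfer was 7.5 nL into about 10 µL; 0% = median of vehicle wells and 100% = median of positive control wells; one replicate is shown; the record names a cut of 25% in any replicate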
Ecoli growth – E. coli growth inhibition, primary screen, OD600; OD600 absorbance (test concentration not listed); AID 1053175, 2014; 330,000 tested, 0.21% active; Escherichia coli growth, 23 h; stronger effect = lower value;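 active = OD600 absorbance below the run mean of sample wells minus 3.6 SD, in any replicate, cut at about 0.56 in these data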;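 also: stock transfer was 300 nL into about 60 µL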
A1 inh – caspase 3/7 activation in MEF A1-2A-BIM cells, primary screen, A1 inhibitor project, cell-based, luminescence, HTS | Caspase-Glo 3/7 luminescence, 3 h; percent of clofoctol response, vehicle zero | caspase activation, % (concentration not given with the values) | 330,000 tested, 0.066% active;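 active = over half of replicate activation scores above 10%, or exactly half above 10 with the replicate mean above 10; inconclusive = replicate mean below 10 yet half the replicates above 10; inactive = over half of replicates below 10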;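 also: wells of about 30 µL received 50 nL stock; many hits fall short of the cut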
UCH37 DUB inh – inhibitors of human UCH37 deubiquitinase, primary screen, biochemical, Ub-AMC cleavage, fluorescence; 330,000 tested, 0.33% active; inhibition, % (concentration not given with the values); Ubiquitin carboxyl-terminal hydrolase isozyme L5 (Homo sapiens), Q9Y5K5; purified proteasome/UCH37; AID 588478, 2011;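 active = mean of two replicates above 20%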;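 also: 0% = compound-free wells with enzyme and 100% = wells lacking proteasome; stock transfer was 100 nL into about 20 µL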
Target sequence (Q9Y5K5 whole entry, looked up): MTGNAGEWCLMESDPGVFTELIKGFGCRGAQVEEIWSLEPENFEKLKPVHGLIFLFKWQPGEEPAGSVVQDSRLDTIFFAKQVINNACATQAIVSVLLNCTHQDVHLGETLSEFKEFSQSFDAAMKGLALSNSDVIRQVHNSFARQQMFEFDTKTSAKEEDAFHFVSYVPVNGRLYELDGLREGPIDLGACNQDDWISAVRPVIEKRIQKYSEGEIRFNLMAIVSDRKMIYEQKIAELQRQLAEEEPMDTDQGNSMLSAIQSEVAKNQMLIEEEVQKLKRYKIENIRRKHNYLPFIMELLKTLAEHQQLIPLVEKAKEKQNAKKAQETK
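Schedule: 30 min plus 25 min, room temperature / Material: human UCH37 within purified proteasomes / Technique: AMC fluorescence intensity at 355/460 nm / Buffer or medium: pH 7.4 Tris-HCl (50 mM) with ovalbumin, ATP-MgCl2, DTT / Controls: wells without proteasome as full block, compound-free enzyme plus substrate as uninhibited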
Numbers without * were called inactive. Random draw from the library; 2.1% or so of the library scored in one or more.

`Cc1oc2c(CN3CCCCC3)c(O)ccc2c(=O)c1-c1ccc(Cl)cc1` gave HNF4A DNA FP 1.7, B2AR ag -0.6, Vif TR-FRET -8.6%, LANA-H2B inh 0.6, Ecoli growth 0.648, A1 inh 0.9 and UCH37 DUB inh inactive.
Cc1nc2ccccc2nc1N1CCC(C)CC1 was read as HNF4A DNA FP 0.1, B2AR ag -9.0, Vif TR-FRET 1.9%, LANA-H2B inh -2.3, Ecoli growth 0.709, A1 inh 0.3 and UCH37 DUB inh 3.1.
`CCc1c(C)nc(SCC(=O)Nc2ccc(Br)cc2)[nH]c1=O` gave HNF4A DNA FP 0.3, B2AR ag -3.1, Vif TR-FRET 0.1%, LANA-H2B inh -2.4, Ecoli growth 0.769, A1 inh -0.4 and UCH37 DUB inh 7.0.
Screening O=C(NCc1ccc(C(=O)O)cc1)OCc1ccccc1 returned HNF4A DNA FP 1.4, B2AR ag 3.4, Vif TR-FRET -6.8%, LANA-H2B inh 2.0, Ecoli growth 0.681, A1 inh -0.4 and UCH37 DUB inh -2.4.
Screening Cc1cc(/C=C2/SC(=O)N(CC(=O)N3CCOCC3)C2=O)c(C)n1-c1ccccc1F returned HNF4A DNA FP -2.7, B2AR ag -1.1, LANA-H2B inh 2.5, Ecoli growth 0.658, A1 inh -0.3 and UCH37 DUB inh 1.0.
Screening Clc1ccc(N(CC2CO2)CC2CO2)cc1 (stereo not drawn) returned HNF4A DNA FP -0.7, B2AR ag 9.0, Vif TR-FRET 6.8%, Ecoli growth 0.706 and UCH37 DUB inh 0.5.
For CCOC(=O)C1CCN(C(=O)CCc2c(C)nc3c(-c4ccc(F)cc4)c(C)nn3c2C)CC1 the results were HNF4A DNA FP 4.7, B2AR ag -1.8, Vif TR-FRET 0.1%, LANA-H2B inh -3.2, Ecoli growth 0.75, A1 inh 0.2 and UCH37 DUB inh 3.4.
For Cc1ccc(C(=O)Nn2c(N)c(S(=O)(=O)c3ccc(C)cc3)c3nc4ccccc4nc32)cc1 the results were HNF4A DNA FP 2.3, B2AR ag 5.7, Vif TR-FRET 7.0%, LANA-H2B inh -0.2, Ecoli growth 0.694, A1 inh 3.1 and UCH37 DUB inh -372.3.
For CCn1c(=O)c2cc(S(=O)(=O)NCCOc3ccccc3)ccc2n(CC)c1=O the results were HNF4A DNA FP -4.2, B2AR ag 1.6, Vif TR-FRET -3.7%, LANA-H2B inh -0.9, Ecoli growth 0.678, A1 inh -1.1 and UCH37 DUB inh 1.4.
`COc1ccc(NC(=O)c2cc(S(=O)(=O)N3CCS(=O)(=O)CC3)ccc2Cl)cc1` gave HNF4A DNA FP 1.1, B2AR ag 7.5, Vif TR-FRET inconclusive, LANA-H2B inh -6.1, Ecoli growth 0.781, A1 inh 0.0 and UCH37 DUB inh 0.2.
For Cc1cc(C)c(O)c(CN(C)Cc2cc(Cl)cc(Cl)c2O)c1 the results were HNF4A DNA FP 0.7, B2AR ag 14.5, Vif TR-FRET 2.7%, Ecoli growth 0.629 and UCH37 DUB inh 0.1.
`COc1cc(C(=S)N2CCOCC2)ccc1OC(=O)c1cc([N+](=O)[O-])c(C)c([N+](=O)[O-])c1` gave HNF4A DNA FP 1.6, B2AR ag 3.0, LANA-H2B inh 4.7, Ecoli growth 0.676, A1 inh 0.8 and UCH37 DUB inh 1.9.
N=c1n(CC(=O)c2ccc([N+](=O)[O-])cc2)c2ccccc2n1Cc1ccccc1 was read as HNF4A DNA FP 67.6*, B2AR ag 98.0*, Vif TR-FRET 9.8%, LANA-H2B inh 2.3, Ecoli growth 0.682, A1 inh 0.1 and UCH37 DUB inh 10.8.
O=S(=O)(CCc1nc2ccccc2o1)c1ccc2ccccc2c1 was read as HNF4A DNA FP 1.2, B2AR ag 1.6, Vif TR-FRET 6.2%, LANA-H2B inh -0.1, Ecoli growth 0.756, A1 inh 0.0 and UCH37 DUB inh -4.8.
CCOc1ccc(-c2c(=O)n(OCC)c3ccccc3[n+]2[O-])cc1 was read as HNF4A DNA FP -1.8, B2AR ag 1.2, Vif TR-FRET 0.7%, LANA-H2B inh 4.8, Ecoli growth 0.671, A1 inh 0.2 and UCH37 DUB inh 9.1.
CC(=O)N=C(N)Sc1nc2ccccc2[nH]1 was read as HNF4A DNA FP -0.7, B2AR ag -0.7, Vif TR-FRET 29.8%, LANA-H2B inh 0.7, Ecoli growth 0.668, A1 inh -1.8 and UCH37 DUB inh 5.8.
Cc1cccc(C(=O)N[C@@H]2c3ccccc3C[C@@H]2O)n1 was read as HNF4A DNA FP 4.9, B2AR ag 3.0, LANA-H2B inh 1.3, A1 inh -0.2 and UCH37 DUB inh 3.1.
For CCOC(=O)CSc1nc2c(sc(=S)n2-c2ccc(OCC)cc2)c(=O)[nH]1 the results were HNF4A DNA FP 0.0, B2AR ag -3.2, Vif TR-FRET 5.0%, LANA-H2B inh 3.8, Ecoli growth 0.66, A1 inh 0.3 and UCH37 DUB inh 9.0.
CN(C)/C=N/c1nc2nccc(-c3ccc(F)cc3)n2n1 was read as HNF4A DNA FP 0.8, B2AR ag -5.4, Vif TR-FRET 2.5%, LANA-H2B inh 2.8 and A1 inh 0.2.
COC(=O)c1cc(C#N)c(OC)nc1C was read as HNF4A DNA FP 2.0, B2AR ag -0.7, Vif TR-FRET -7.2%, LANA-H2B inh -2.1, Ecoli growth 0.645, A1 inh 0.4 and UCH37 DUB inh 1.6.

Reprinted at random: 2 records from the list
Screening Cc1cc(/C=C2/SC(=O)N(CC(=O)N3CCOCC3)C2=O)c(C)n1-c1ccccc1F returned HNF4A DNA FP -2.7, B2AR ag -1.1, LANA-H2B inh 2.5, Ecoli growth 0.658, A1 inh -0.3 and UCH37 DUB inh 1.0.
Cc1nc2ccccc2nc1N1CCC(C)CC1 was read as HNF4A DNA FP 0.1, B2AR ag -9.0, Vif TR-FRET 1.9%, LANA-H2B inh -2.3, Ecoli growth 0.709, A1 inh 0.3 and UCH37 DUB inh 3.1.

(listing goes on)
Screening c1ccc(-c2ccccc2OCCCN2CCCC2)cc1 returned HNF4A DNA FP 0.4, B2AR ag -37.4, Vif TR-FRET 0.0%, LANA-H2B inh 2.9, Ecoli growth 0.626, A1 inh 0.4 and UCH37 DUB inh 1.3.
Cc1c(C(=O)Nc2ccccc2F)cnn1-c1ccccc1 was read as HNF4A DNA FP -0.8, B2AR ag 7.4, LANA-H2B inh -7.4, Ecoli growth 0.713, A1 inh -6.1 and UCH37 DUB inh 2.0.
For O=C(COC(=O)c1ccc(Cl)nc1)Nc1ccc2c(c1)OCCO2 the results were HNF4A DNA FP -0.3, B2AR ag -10.2, Vif TR-FRET -2.9%, LANA-H2B inh 4.0, Ecoli growth 0.717, A1 inh 1.2 and UCH37 DUB inh 3.1.
Screening CN(C)C(CNC(=O)CCNC(=O)c1ccc(Br)cc1)c1ccco1 (stereo not drawn) returned HNF4A DNA FP -0.2, B2AR ag -0.9, Vif TR-FRET -0.3%, LANA-H2B inh 0.6, Ecoli growth 0.717, A1 inh -0.4 and UCH37 DUB inh -1.3.
`CCOc1ccc(CN2C(=O)c3ccccc3C2=O)cc1C(=O)O` gave HNF4A DNA FP -0.8, B2AR ag -0.4, Vif TR-FRET 3.7%, LANA-H2B inh -1.1, Ecoli growth 0.678, A1 inh 0.8 and UCH37 DUB inh -0.2.
`Cc1ccc(C(=O)NNC(=O)CSc2nc(N)cc(N)n2)cc1` gave HNF4A DNA FP 3.6, B2AR ag 2.7, Vif TR-FRET -11.1%, LANA-H2B inh 1.5, Ecoli growth 0.686, A1 inh -0.1 and UCH37 DUB inh 2.1.
`Cc1ccc(C(=O)NC(=S)Nc2ccc3[nH]c(=O)[nH]c3c2)cc1C` gave HNF4A DNA FP 1.2, B2AR ag -4.9, LANA-H2B inh 3.5, Ecoli growth 0.711, A1 inh 1.0 and UCH37 DUB inh 6.4.
Screening CCc1noc(C)c1C(=O)Nc1nc2c(C)cccc2s1 returned HNF4A DNA FP -3.3, B2AR ag 5.6, Vif TR-FRET -10.1%, LANA-H2B inh -2.0, Ecoli growth 0.7, A1 inh -1.2 and UCH37 DUB inh 0.5.
`COc1cc(-c2nnc(SCC(=O)c3cc(C)n(CC4CCCO4)c3C)o2)cc(OC)c1OC` (stereo not drawn) gave HNF4A DNA FP 0.5, B2AR ag -3.1, Vif TR-FRET 9.8%, LANA-H2B inh -0.3, Ecoli growth 0.692, A1 inh -0.8 and UCH37 DUB inh 3.3.
C/C(=N\N=C1\NC(=O)C(Cc2ccccc2)S1)c1ccccc1 (stereo not drawn) was read as HNF4A DNA FP -5.0, B2AR ag 5.1, Vif TR-FRET 10.8%, LANA-H2B inh -3.0 and A1 inh -1.0.
For O=S(=O)(NCC1CCCO1)c1ccccc1 (stereo not drawn) the results were HNF4A DNA FP -4.1, B2AR ag 5.6, LANA-H2B inh 12.2, Ecoli growth 0.648, A1 inh 0.5 and UCH37 DUB inh 1.9.
For COc1ccc(NC(=O)CSc2nnc(N)s2)c([N+](=O)[O-])c1 the results were HNF4A DNA FP 2.0, B2AR ag 19.1, Vif TR-FRET 7.6%, LANA-H2B inh -2.2, Ecoli growth 0.706, A1 inh 0.5 and UCH37 DUB inh -0.5.
`CC(NC(=O)c1cc(Br)ccc1Br)c1ccccc1` (stereo not drawn) gave Vif TR-FRET -2.2%, LANA-H2B inh 6.2, Ecoli growth 0.72, A1 inh -0.5 and UCH37 DUB inh 1.4.
`O=c1c2ccccc2nc(/C=C/c2cccc([N+](=O)[O-])c2)n1CCCO` gave HNF4A DNA FP 3.1, B2AR ag -11.4, Vif TR-FRET 4.8%, LANA-H2B inh 1.4, A1 inh 0.4 and UCH37 DUB inh 7.0.
Screening CCCCNc1nc2c(c(=O)[nH]c(=O)n2C)n1CCOc1ccccc1 returned HNF4A DNA FP 1.1, B2AR ag -6.8, Vif TR-FRET 3.6%, LANA-H2B inh -0.4, Ecoli growth 0.701, A1 inh -1.0 and UCH37 DUB inh 1.0.
`COc1ccc(OC)c(NC(=O)Cn2nc(C)c3ccccc3c2=O)c1` gave HNF4A DNA FP 0.8, B2AR ag -4.2, Vif TR-FRET 1.9%, LANA-H2B inh 1.0, Ecoli growth 0.626, A1 inh 0.2 and UCH37 DUB inh 3.9.
O=C1C=CC(=O)N1c1ccccn1 was read as HNF4A DNA FP -4.6, B2AR ag 0.0, Vif TR-FRET 3.4%, Ecoli growth 0.705 and UCH37 DUB inh -2.1.
Screening C[C@H](CO)N1C[C@H](C)[C@@H](CN(C)S(=O)(=O)c2ccccc2)Oc2ccc(NC(=O)NC3CCCCC3)cc2C1=O returned HNF4A DNA FP -3.2, B2AR ag 5.1, Vif TR-FRET -3.5%, LANA-H2B inh -217.6, Ecoli growth 0.696, A1 inh 0.8 and UCH37 DUB inh 5.4.
`COc1ccc(CNc2ccc3c(c2)ncn3-c2ccccc2OC)cc1` gave HNF4A DNA FP -0.3, B2AR ag -3.8, Vif TR-FRET 9.4%, LANA-H2B inh 5.5, Ecoli growth 0.653, A1 inh 0.8 and UCH37 DUB inh -4.5.
COc1ccc(CCNc2nc(=O)[nH]nc2C)cc1OC was read as HNF4A DNA FP 3.0, B2AR ag 9.3, Vif TR-FRET 15.6%, LANA-H2B inh -3.4, Ecoli growth 0.703, A1 inh 0.5 and UCH37 DUB inh 1.7.
